Screening data deposited in PubChem by several laboratories.
Autofluor counter: flagged as autofluorescent in microsphere protease counterscreen. compound autofluorescence counterscreen, microsphere flow cytometry; stronger effect = higher value. fluorescence intensity (test concentration not listed). 360,000 tested, 3.1% active. AID 624483;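 active means at least 3 SD above the mean of all compounds, about 16000 in these data; inconclusive means too few beads counted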;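 further: 100 nL of 1 mM stock went into each well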
BJeLR viability: kills HRASV12-expressing BJeLR cells; 300,000 tested, 0.17% active; BJeLR (HRASV12) viability, CellTiter-Glo ATP luminescence, 48 h; reference of the scale not given here; inhibition, % (no concentration beside the values);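 active means replicate mean above 50%; inconclusive means above 50% but judged a plate artefact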;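 further: 50 nL library stock added to about 25 µL; numbers are from one replicate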
RN4220 kill: kills Staphylococcus aureus RN4220; S. aureus RN4220 growth, OD600, 16 h; 330,000 tested, 0.33% active; inhibition, % (concentration not given with the values);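 active means z-score of -3 or lower and OD600 up to 0.18 on both plates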;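 further: plate controls were untreated cells for no effect and reference antibiotic for full effect; stock transfer was 100 nL into about 80 µL; one replicate is shown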
ugtP null kill: compounds lethal to S. aureus RN4220 ugtP deletion mutant; 330,000 tested, 0.54% active; OD600 growth, 16 h; some inactives read as strong as hits; AID 1259309; growth inhibition, % (concentration not given with the values);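 active means z-score under -3 and OD600 up to 0.15 on both plates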;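 further: plate controls were untreated wells for no effect and antibiotic for full effect; wells of about 80 µL received 100 nL stock; the first replicate is given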
PrP UTR inh: inhibition of PrP 5' UTR reporter expression; cell-based PrP 5' UTR mRNA reporter, plate reader; inhibition, % (test concentration not listed); 340,000 tested, 0.35% active; AID 488862;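 active means every replicate at 50% or more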;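 further: 0 = median of the neutral control wells; tested in H4 reporter cells; numbers are from one replicate; inactives centre near -14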
Mtb hypoxia inh: reduces hypoxia-regulated biosensor signal in M. tuberculosis; M. tuberculosis hypoxia-regulated fluorescent reporter, fluorescence; fluorescence inhibition, % (concentration not given with the values); 300,000 tested, 0.1% active;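 active means 35 to 45% if threefold the growth effect, above 45% if 1.5-fold the growth effect; inactive means the rest, general growth blockers included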;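 further: wells of about 50 µL received 100 nL stock; 0% = vehicle wells and 100% = reference inhibitor wells; whole bacteria with a GFP reporter of the hypoxia response; strong numbers were not always called active; many hits fall short of the cut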
Mtb hypoxia inh growth: recorded beside Mtb hypoxia inh, whose call it bears; growth inhibition, %; measured here: M. tuberculosis growth (absorbance);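 0% = vehicle and 100% = reference antibiotic; read after six days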
* hit, by the source's call; ? = inconclusive; . = not tested or not shown. This is a random part of the collection. About 3.9% of those tested had a hit in this group.

#1 O=C(Nc1ccccc1)C1COc2ccccc2O1 (configuration not stated)
#2 Cn1c(=O)n(C)c2cc(N3CCCC3)c(NC(=O)c3cccc(F)c3)cc21
#3 COc1ccc(OC)c(N(C)S(=O)(=O)c2ccc3c(c2)N(C(C)=O)CCO3)c1
#4 CN1CCN(N=Cc2ccc(-c3ccc([N+](=O)[O-])cc3Cl)o2)CC1
#5 CCCS(=O)(=O)N1CCCC(C(=O)NCCN2CCOCC2)C1 (configuration not stated)
#6 CCn1cc(C(=O)NCCCN2CCCC(C)C2)c(=O)c2cc(S(=O)(=O)N(C)C3CCCCC3)ccc21 (configuration not stated)
#7 COC(=O)C1Cc2c([nH]c3ccccc23)CN1C(C)=O (configuration not stated)
#8 Cc1cnn(-c2cc(NN=Cc3ccc(F)cc3)ncn2)c1
Compound,1,2,3,4,5,6,7,8
Autofluor counter,2947,5731,6272,.,2737,4594,4870,.
BJeLR viability,-0.1,-5.1,0.6,.,-1.4,16.8,-6.6,.
RN4220 kill,1.7,-0.9,3.6,2.7,-16.0,3.9,-0.7,20.3
ugtP null kill,0.7,0.5,-1.8,3.7,-5.6,7.6,5.4,10.5
PrP UTR inh,-31.6,-13.8,-11.7,.,-5.2,-19.2,-28.3,.
Mtb hypoxia inh,12.1,1.0,0.7,12.7,10.9,0.3,4.4,-6.5
Mtb hypoxia inh growth,-3.9,0.1,1.0,11.2,3.8,-6.0,-14.4,-6.5

#9 CC1(C(=O)NCC2CCCO2)Oc2cccnc2NC1=O (configuration not stated)
#10 Cc1cc(=O)oc2cc(OC(=O)C3CCN(C(=O)c4ccc(F)cc4)CC3)ccc12
#11 COC(=O)c1c(NC(=O)CCCC(=O)O)sc2c1CCC2
#12 CC1(C)Cc2c(sc(NC(=O)C(=O)NCC3CCCO3)c2C(N)=O)CO1 (configuration not stated)
#13 CCCNC(=O)Cn1c(-c2ccc(F)cc2)cc(C(=O)OCC)c1C
#14 CCC(=O)Nc1cc(-c2cc3ccccc3oc2=O)ccc1OC
#15 O=C(COC(=O)Cc1ccccc1F)Nc1cccc(F)c1
#16 Cc1nonc1OCCN1CCN(c2ccccc2[N+](=O)[O-])CC1
Compound,9,10,11,12,13,14,15,16
Autofluor counter,3241,.,22669*,5240,2065,4346,4720,2712
BJeLR viability,-1.7,4.8,-6.0,11.0,2.9,3.6,-4.4,7.7
RN4220 kill,3.4,-2.2,7.9,4.0,3.6,5.7,2.3,7.2
ugtP null kill,-0.3,-4.5,-3.9,4.9,-2.4,8.8,3.3,7.2
PrP UTR inh,-22.3,-14.8,-16.0,-29.1,-31.9,-53.8,0.1,-15.8
Mtb hypoxia inh,7.7,-6.8,3.1,-0.4,5.4,15.3,5.2,18.7
Mtb hypoxia inh growth,-6.3,-2.5,8.8,2.4,2.9,12.9,6.8,4.1

#17 CC(C)(C)c1cc(CSC(=S)NC2CCS(=O)(=O)C2)c(Br)c(C(C)(C)C)c1 (configuration not stated)
#18 Oc1c(C=C2N=c3ccccc3=N2)sc(=S)n1-c1ccc2ccccc2c1
#19 Cc1ccc2c(c1)C1C(CO2)C(c2ccccc2)[C@]2(C)C(=O)Nc3ccc(Cl)cc3C(=O)N12 (some centres not stated)
#20 O=C(NCCC1=CCCCC1)Nc1ccc2nsnc2c1
#21 CC1CN(C(C)CO)C(=O)c2cccc(NS(=O)(=O)c3cccs3)c2OC1CN(C)C(=O)Nc1ccc(C(F)(F)F)cc1 (configuration not stated)
#22 CC(C)(C)C(=O)C=c1[nH]c(=O)c(=Cc2ccc(C#N)cc2)s1
#23 COc1c(Cl)cc(Cl)cc1CNCCNCCO
#24 COc1cccc(N2C(=O)CC(N3CCN(S(=O)(=O)c4ccccc4)CC3)C2=O)c1 (configuration not stated)
Compound,17,18,19,20,21,22,23,24
Autofluor counter,4244,3905,.,4069,.,.,10177,2838
BJeLR viability,0.1,8.8,.,1.7,.,.,-2.9,5.4
RN4220 kill,-0.3,2.7,-6.2,-10.1,4.1,0.1,2.7,-15.4
ugtP null kill,67.0,-10.5,-0.2,-10.2,-28.5,-15.1,2.8,-4.9
PrP UTR inh,-16.6,-5.9,.,-105.3,.,.,-8.5,-11.0
Mtb hypoxia inh,6.5,8.9,14.2,8.1,2.1,-1.4,11.8,19.1
Mtb hypoxia inh growth,18.2,-4.0,5.9,11.8,5.8,3.2,6.5,-15.0

#25 Cc1cccc(C(=O)NC(=S)Nc2ccc(S(=O)(=O)N3CCN(C)CC3)cc2)c1
#26 O=c1oc2ccccc2cc1-c1csc(Nc2nc3ccc(F)cc3s2)n1
#27 O=S(=O)(NCCCN1CCN(c2ccccc2F)CC1)c1cccc2cccnc12
#28 Cc1ccc(C)c(N(CC(=O)NC2CCCC2)C(=O)c2cc3cc4cc(C)ccc4nc3s2)c1
#29 O=C(Nc1ccc(-c2csc(Nc3ccccc3)n2)cc1)c1cc([N+](=O)[O-])cc(C(F)(F)F)c1
#30 COc1ccc2nc(Nc3nc(CSc4ccc(C)cc4)cc(=O)[nH]3)nc(C)c2c1
#31 CCN(CC)CCN1C(=O)C2C(C(=O)Nc3cccc(C)c3)C3C=CC2(O3)C1C(=O)NC1CCCC(C)C1C (configuration not stated)
#32 S=c1[nH]nc(C23CC4CC(CC(C4)C2)C3)n1Cc1ccco1
Compound,25,26,27,28,29,30,31,32
Autofluor counter,2751,.,5229,10542,3838,3772,3454,2801
BJeLR viability,0.0,6.0,1.9,-4.1,22.8,-8.9,0.2,-6.5
RN4220 kill,1.2,-2.5,4.7,1.4,48.5,6.9,3.2,-4.5
ugtP null kill,16.2,-10.1,10.6,-12.7,20.8,-1.4,1.8,-10.4
PrP UTR inh,1.1,.,-5.4,-14.1,-8.0,-27.4,-27.9,-26.2
Mtb hypoxia inh,.,2.8,.,1.8,-0.6,-4.8,-4.1,7.5
Mtb hypoxia inh growth,.,8.3,.,-0.1,2.2,-0.3,1.1,7.5

#33 Cc1ccc(C2=NCC(=O)N(CC(=O)N3CCCCC3)c3sc(C)c(C)c32)cc1
#34 O=C1C=C(c2ccc3cc[nH]c3c2)CC(c2ccc3c(c2)OCO3)C1 (configuration not stated)
#35 CCC(C(=O)NC(C)CCc1ccco1)n1nc(C)n2c(cc3occc32)c1=O (configuration not stated)
#36 Cc1ccc(NC(=O)Cn2c(O)c(N=NC(N)=O)c3ccccc32)cc1
#37 CC1CCCCN1Cc1c(O)ccc2c(=O)c(-c3ccc(Cl)cc3Cl)coc12 (configuration not stated)
#38 CSc1ncc(C(=O)Nc2cc(C)ccc2C)c(C)n1
#39 CCN1C(Nc2ccccc2)=NC[C@@H]1CC(C)C
#40 CC(C)CC(=O)Nc1ccc(C(=O)COC(=O)C2CCC2)cc1
Compound,33,34,35,36,37,38,39,40
Autofluor counter,23432*,.,2449,3464,3322,3887,4273,4487
BJeLR viability,4.8,.,-1.1,4.9,-7.1,1.7,0.1,7.3
RN4220 kill,-2.6,-1.6,-10.7,2.1,1.0,10.1,.,2.9
ugtP null kill,-8.3,-2.0,-3.7,6.9,5.3,6.1,.,10.1
PrP UTR inh,-2.9,.,-6.0,-13.5,-19.3,-2.7,-24.7,-12.5
Mtb hypoxia inh,5.0,-6.7,5.6,4.4,21.6,1.6,.,4.6
Mtb hypoxia inh growth,5.6,0.3,6.1,1.5,8.0,5.1,.,-13.1

#41 CCn1c(SCC(=O)NN=C(C)c2ccncc2)nnc1-c1ccc(C)cc1
#42 CCOC(=O)c1cc(-c2ccccc2)sc1NC(=O)C(C)(C)C
#43 Nc1c(C(=O)c2ccc(F)cc2)oc2ccccc12
#44 Cc1nnc(SCC(=O)N(C)CC(=O)Nc2ccc(F)cc2)n1Cc1ccccc1
#45 C=CCSC1=C(C#N)C(c2ccccc2OCC)C(C#N)C(=O)N1 (configuration not stated)
#46 CCCc1nc(N)sc1C(=O)OCC
#47 CCN(CC)c1ccc(S(=O)(=O)N2CCOCC2)cc1NC(=O)CSc1nnc(N)s1
#48 O=C(COc1cccc(F)c1)Nc1ccc2[nH]c(=O)[nH]c2c1
Compound,41,42,43,44,45,46,47,48
Autofluor counter,.,2691,9540,4696,10500,3565,?,3741
BJeLR viability,.,8.4,-12.7,-4.4,6.7,-3.1,-2.0,5.7
RN4220 kill,4.0,6.2,3.6,2.4,8.0,2.7,9.1,0.3
ugtP null kill,14.1,1.8,-4.8,6.1,0.2,9.0,4.8,1.1
PrP UTR inh,.,-20.8,.,-29.3,-15.6,-19.4,0.6,-9.8
Mtb hypoxia inh,3.6,8.8,10.2,5.3,7.1,.,6.4,0.1
Mtb hypoxia inh growth,6.4,1.4,6.4,7.6,2.2,.,-2.0,11.6

#49 Fc1ccc(NC(=S)Nc2ccc(F)c(Cl)c2)cc1Cl
#50 COc1ccc(S(=O)(=O)N(C)CC(=O)Nc2ccc3c(c2)OCCO3)cc1
#51 Cc1ccc(NC(NC(=O)c2ccccc2[N+](=O)[O-])C(Cl)(Cl)Cl)cc1 (configuration not stated)
#52 CSc1ccc(/C=C/C(=O)OCC(=O)c2ccc[nH]2)cc1
#53 CCOc1ccc(N=c2cc(-c3ccc(OC)cc3)oc3ccccc23)cc1
#54 COc1ccc(-c2cc3c(=O)n(CC(=O)NCc4ccc(C)cc4)ncn3n2)cc1
#55 O=C(NCc1cccs1)C(=O)c1c[nH]c2ccccc12
#56 CC(C(=O)NN)n1nnc(N2CCOCC2)n1 (configuration not stated)
Compound,49,50,51,52,53,54,55,56
Autofluor counter,3107,6703,7730,3966,9421,4616,2219,4642
BJeLR viability,9.0,3.1,-3.5,.,1.0,1.7,-1.2,13.3
RN4220 kill,108.3*,3.1,6.0,8.9,-11.1,-6.9,4.0,2.9
ugtP null kill,97.2*,4.0,-1.2,3.6,-2.6,0.6,0.8,4.3
PrP UTR inh,-16.3,-9.4,-20.3,-48.7,-4.3,-31.5,-20.9,-19.9
Mtb hypoxia inh,.,-8.1,6.4,-5.9,7.9,0.7,2.8,-3.1
Mtb hypoxia inh growth,.,-0.5,0.1,-10.7,1.5,3.8,5.5,3.1

Five compounds already listed, sorted by heavy-atom count, lowest first.
#49 Fc1ccc(NC(=S)Nc2ccc(F)c(Cl)c2)cc1Cl
#52 CSc1ccc(/C=C/C(=O)OCC(=O)c2ccc[nH]2)cc1
#50 COc1ccc(S(=O)(=O)N(C)CC(=O)Nc2ccc3c(c2)OCCO3)cc1
#53 CCOc1ccc(N=c2cc(-c3ccc(OC)cc3)oc3ccccc23)cc1
#54 COc1ccc(-c2cc3c(=O)n(CC(=O)NCc4ccc(C)cc4)ncn3n2)cc1
Compound,49,52,50,53,54
Autofluor counter,3107,3966,6703,9421,4616
BJeLR viability,9.0,.,3.1,1.0,1.7
RN4220 kill,108.3*,8.9,3.1,-11.1,-6.9
ugtP null kill,97.2*,3.6,4.0,-2.6,0.6
PrP UTR inh,-16.3,-48.7,-9.4,-4.3,-31.5
Mtb hypoxia inh,.,-5.9,-8.1,7.9,0.7
Mtb hypoxia inh growth,.,-10.7,-0.5,1.5,3.8

The results go on.
#57 Cc1cc(C)c(C(=O)COC(=O)CNC(=O)c2ccccc2C)c(C)c1
#58 OCC1CCCCN1C(=S)Nc1cccc(Cl)c1 (configuration not stated)
#59 CSc1cccc(NC(=O)C2CCCN2S(=O)(=O)c2ccc3c(c2)CCC(=O)N3)c1 (configuration not stated)
#60 COc1ccc(C)cc1S(=O)(=O)N1CCCCC1
#61 CCc1ccc(NC(=O)CSc2nnc(CC)c(CC)n2)cc1
#62 C/C=C(\C)C(=O)N[C@@H](c1ccccc1)[C@@H](O)C(=O)O[C@H]1C[C@@]2(O)[C@@H](OC(=O)c3ccccc3)C3[C@](C)(C(=O)[C@H](O)C(=C1C)C2(C)C)[C@@H](O)C[C@H]1OC[C@@]31OC(C)=O (some centres not stated)
Compound,57,58,59,60,61,62
Autofluor counter,4681,4381,22135*,3062,9651,5419
BJeLR viability,4.8,-6.5,.,-3.1,-6.7,25.4
RN4220 kill,1.8,7.5,4.5,2.7,1.4,3.4
ugtP null kill,11.0,2.5,-0.3,1.5,-6.2,-4.4
PrP UTR inh,-14.1,-18.1,-24.2,-14.5,-8.5,20.5
Mtb hypoxia inh,8.6,0.5,-1.4,6.5,-4.0,.
Mtb hypoxia inh growth,3.4,11.7,-2.8,6.3,19.3,.
